# Source: PubChem BioAssay (National Center for Advancing Translational Sciences (NCATS))
# Cruzain inh Det – cruzain (T. cruzi) inhibition with detergent | P25779 | purified cruzain, Z-FR-AMC fluorescence, 0.01% Triton | Potency, µM, for the others: max response, negative = inhibition, actives largely listed as inhibitors | 0.43% of 200,000 active | AID 1478;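 further: plate controls were neutral wells for no effect and buffer without enzyme for full effect; nearly all actives have a fitted effect of over 40% in size; top concentration of the series not given in the record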
# Target sequence (P25779 123-467 limits assumed): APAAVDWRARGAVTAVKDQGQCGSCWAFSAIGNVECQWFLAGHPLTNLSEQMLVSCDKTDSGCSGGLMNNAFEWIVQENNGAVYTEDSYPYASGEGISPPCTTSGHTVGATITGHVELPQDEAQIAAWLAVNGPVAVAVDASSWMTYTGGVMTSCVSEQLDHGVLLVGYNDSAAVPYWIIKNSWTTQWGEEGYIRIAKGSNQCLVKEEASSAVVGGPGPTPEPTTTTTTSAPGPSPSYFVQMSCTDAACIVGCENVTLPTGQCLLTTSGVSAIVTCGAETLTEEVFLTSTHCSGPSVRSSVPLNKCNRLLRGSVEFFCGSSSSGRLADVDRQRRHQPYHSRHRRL
#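 Sodium acetate buffer (100 mM, pH 5.5) containing 5 mM DTT and 0.01% Triton X-100 hosted 1.5 nM cruzain and test compound for 15 min at room temperature. Cleavage of 2 uM Z-FR-AMC was then tracked by fluorescence.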
# RE007 growth inh – less growth of the S. pombe RE007 Vpr strain; S. pombe RE007 Vpr strain, BacTiter-Glo ATP luminescence, 24 h; control for the full effect not named in the record; Potency, µM (doses to about 92.2 µM), for the others: top-dose activity change, negative = less growth; 0.21% of 360,000 active; AID 651644; active = well fitted falling curve with a large enough effect; inconclusive = small, poorly fitted or top-dose-only effect; inactive = no such curve, though single readings can be large or run the other way;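 further: on the % scale 0 is the no-effect control and ±100 the full control effect; nearly all actives have a fitted effect of over 50% in size; the assay follows cell death caused by Vpr and the record does not say whether a fall means rescue or toxicity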
#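 Fission yeast RE007 carrying one integrated HIV-1 vpr copy, seeded at OD 0.01 in PMG+AL medium with 23 nL pinned compound. Grown 24 h at 30 degrees; viability read by BacTiter-Glo luminescence after 5 min.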
# 2A StopGo – FMDV 2A StopGo reporter, luciferase signal; human cells with a luciferase reporter of 2A StopGo recoding; control for the full effect not named in the record; Potency, µM (doses to about 57.9 µM), inactives show top-dose signal change, negative = less light; 1.2% of 410,000 active; active = well fitted falling curve with a large enough effect; inconclusive = small, poorly fitted or top-dose-only effect; inactive = no such curve, though single readings can be large or run the other way; tested in HEK293T cells; further: on the % scale 0 is the no-effect control and ±100 the full control effect; nearly all actives have a fitted effect of over 45% in size; luciferase light after 4 h
# Lassa entry inh – blocks Lassa virus binding to or entry into cells. Lassa virus pseudotype entry inhibition, cell reporter; control for the full effect not named in the record. 1.2% of 300,000 active. Potency, µM (top dose mostly 37.9 µM), inactives show at the top dose activity change, negative = inhibition, hits mostly inhibitors; active means well fitted inhibition curve with a large enough effect; inconclusive means small, poorly fitted or top-dose-only effect, or effect the other way; inactive means flat fitted curve, though single readings scatter; tested in HEK293 cells; further: on the % scale 0 is the no-effect control and ±100 the full control effect; nearly all actives have a fitted effect of over 50% in size; luciferase read-out
# MARV entry inh – blocks Marburg virus binding to or entry into cells. Potency, µM (doses to about 37.8 µM), without a hit: top-dose activity change, negative = inhibition, most hits filed as inhibitors. 1.8% of 300,000 active. AID 540276. Marburg virus pseudotyped entry inhibition, cell reporter; control for the full effect not named in the record; about a third of the inactives were read at about 46 µM; active = well fitted inhibition curve with a large enough effect; inconclusive = small, poorly fitted or top-dose-only effect, or effect the other way; inactive = flat fitted curve, though single readings scatter; tested in HEK293 cells; about a fifth of its hits are not listed in these tables; further: on the % scale 0 is the no-effect control and ±100 the full control effect; luciferase read-out
# Cruzain inh noDet – inhibitors of Trypanosoma cruzi cruzain without detergent; purified cruzain, Z-FR-AMC fluorescence, no detergent; Potency, µM, for inactives: max response, negative = inhibition, actives largely listed as inhibitors; 2.3% of 200,000 active; AID 1476;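 further: plate controls were enzyme without inhibitor for no effect and buffer without enzyme for full effect; nearly all actives have a fitted effect of over 40% in size; top concentration of the series not given in the record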
#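 Detergent-free condition (0.00005% Triton X-100) in acetate buffer pH 5.5 with DTT. 1.5 nM enzyme and compound were pre-mixed 15 min, then 2 uM Z-FR-AMC substrate added; reaction progress from fluorescence change between first and third reads (60 s).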
# NS1 inh – inhibitors of influenza NS1 protein function | S. cerevisiae slowed by influenza A NS1, growth recovery by OD600 | Potency, µM (top dose mostly 46.1 µM), without a hit: at the top dose activity, positive = more growth | 0.4% of 270,000 active | AID 2326; active means well fitted rising curve with a large enough effect; inconclusive means small, poorly fitted or top-dose-only effect; inactive means no such curve, though single readings can be large or run the other way; further: nearly all actives have a fitted effect of over 50% in size
#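 Compounds were scored for reversing the slow growth caused by influenza A NS1 in S. cerevisiae, measured by optical density at 600 nm. Assay medium contained 2% galactose at pH 6.0; NS1-free yeast of the same strain were the positive control.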
# SARS PLpro yeast – SARS-CoV PLP inhibition in yeast; Potency, µM (highest dose often 32.9 µM), inactives show top-dose activity, positive = growth rescue; 0.19% of 330,000 active; S. cerevisiae expressing SARS-CoV PLpro, growth rescue; control for the full effect not named in the record; AID 485353; active means well fitted rising curve with a large enough effect; inconclusive means small, poorly fitted or top-dose-only effect; inactive means no such curve, though single readings can be large or run the other way; further: 0% is about no effect; nearly all actives have a fitted effect of over 55% in size; growth read by luminescence after 48 h
# Numbers without * were called inactive; ? = inconclusive; nt = not tested or not shown; [ ] = remark or other dose. Unless noted, the call rests on the fitted dose curve; in most records, active means well fitted curve in the direction sought with a large enough effect; inconclusive means small, poorly fitted or top-dose-only effect, or another doubt; inactive means no such curve, though single readings can be large; an effect the other way counts as inactive or inconclusive. Potency means the concentration at half of the fitted maximal effect.
SMILES,Cruzain inh Det,RE007 growth inh,2A StopGo,Lassa entry inh,MARV entry inh,Cruzain inh noDet,NS1 inh,SARS PLpro yeast
Cc1cc(C)c2c(c1)cc(C)c1nnc(SCC(=O)Nc3ccccc3N3CCOCC3)n12,-5.9%,-1%,0%,-15%,?,?,0%,17%
O=C(O)CC(Cn1[nH]nnc1=S)c1ccccc1 (centres undefined),3.7%,12%,-19%,2%,3%,-15%,1%,-4%
CCOC(=O)CSc1nc2ccc(NC(=O)c3ccc(F)cc3)cc2s1,-3.5%,nt,31%[activator],-1%[46.1 µM],0%[46.1 µM],-14%,nt,nt
Cc1ccc(NC(=S)NCCC2=CCCCC2)cc1,nt,-4%,52%[activator],1%,?,nt,nt,-7%
O=C(Cc1ccc([N+](=O)[O-])cc1)NCc1ccc2c(c1)OCO2,-0.7%,-3%,-5%,-2%,1%,-7%,-1%,5%
CC(NC(=O)c1cccs1)C(c1cccs1)N1CCN(c2ccccc2)CC1 (centres undefined),-5.3%,6%,?,?,-13%,0%,?,-22%
C=C(C)Cn1c(-c2ccc(OC)cc2)nc2ccccc21,0.9%,-5%,-29%,-16%,?,3%,-177%,-30%
Cc1cnc(NC(=O)c2cc3c(s2)CCCC3)s1,-7.5%,-18%,-69%,?,?,-11%,-4%,-6%
O=C(CCCN1C(=O)c2ccccc2C1=O)N1CCCCC1,-5.5%,-5%,17%,8%,1%[46.1 µM],2%,1%,8%
CC(C)(C)c1ccc(CN2N=C(/C=C/c3ccccc3)CCC2=O)cc1,nt,0%,3%,?,?,nt,nt,-6%
CCOC(=O)C1CCCCN1Cc1ccc(-c2ccccc2)cc1 (centres undefined),nt,8%,-23%,-27%[46.1 µM],?,nt,-47%,-1%
Cc1ccccc1-n1c(-c2ccco2)nc2ccccc2c1=O,-2.6%,13%,0%,-11%,?,-6%,-6%,15%
Cc1c(C(=O)N2CCC3(CC2)OCCO3)oc2ccccc12,-2.0%,-7%,32%[activator],-15%[14.3 µM],20%,1%,-7%,-1%
CC(C)C(=O)Nc1c(C(=O)N2CCN(c3ccccc3F)CC2)oc2ccccc12,-5.7%,nt,47%[activator],-3%[46.1 µM],nt,26%,nt,nt
O=[N+]([O-])c1cc(Br)cc(/C=N/n2cnnc2)c1O,nt,?,-28%,17%,-6%[46.1 µM],nt,nt,-3%
CCOC(=O)c1sc(/N=C/N(C)C)c(C(=O)OCC)c1C,-1.0%,-8%,10%,3%,6%,7%,-17%,-2%
NC(N)=NN=C1c2ccccc2-c2ccccc21,nt,1%,-8%,18%[46.1 µM],?,nt,-10%,-6%
CCc1cccc(NC(=O)C2CCC(CNS(=O)(=O)c3ccc4c(c3)CCCC(=O)N4)CC2)c1 (centres undefined),-1.2%,nt,-19%,7%[46.1 µM],nt,?,nt,nt
COc1ccc(CC(=O)Nc2ccc(-c3noc(-c4ccc(Cl)cc4)n3)cc2)cc1,-7.6%,-1%,-3%,?,?,4µM*,2%,23%
Cc1ccc(F)cc1NC(=O)N1c2ccccc2NC(=O)CC1C (centres undefined),nt,-4%,-8%,nt,nt,nt,5%,0%
Cc1cc(-c2ccc(C(C)C)c(S(=O)(=O)N3CCOc4ccccc43)c2)on1,nt,-2%,?,?,3.2µM*,nt,19%,2%
O=C(CCN1C(=O)c2ccccc2C1=O)C1=NN[C@@H]2C(=O)N(c3cccc(Cl)c3)C(=O)[C@H]12,-3.1%,2%,-8%,18%,1%,-4%,3%,-2%
Cn1c(NC(=O)C2CCCC2)cc(=O)n(C)c1=O,1.9%,4%,-10%,nt,nt,-12%,0%,-11%
O=c1c2cc(Br)ccc2nc(-c2ccc(Cl)cc2)n1O,nt,-3%,-10%,-6%,4%[46.1 µM],nt,10%,0%
COc1ccccc1OCC(=O)OC/C(O)=C(\C#N)c1nc2ccccc2[nH]1,2.8%,-9%,2%,nt,nt,?,?,17%
Cc1csc2nc(O)c(C(=O)NC3CCCCCC3)c(=O)n12,nt,2%,4%,10%,28%[46.1 µM],nt,nt,-1%
CCOC(=O)c1ccc(N2C(=O)CC(NC3CCN(C(=O)c4cccc(Cl)c4)CC3)C2=O)cc1 (centres undefined),-3.7%,-19%,?,29%,-1%,?,-32%,-23%
COc1cc(OC)c(C(=O)NCC2CCCO2)cc1OC (centres undefined),nt,23%,8%,-12%,0%,nt,nt,2%
Cc1ccc(N(Cc2ccccc2)C(=O)c2cc(S(=O)(=O)N3CCOCC3)ccc2C)cc1,nt,2%,8%,?,?,nt,nt,4%
Oc1[nH]c2ccccc2c1N=Nc1nc2ccccc2s1,-2.4%,-1%,73%[activator],?,?,-6%,-1%,-2%
CCCn1c(-c2ccc(F)cc2)n[nH]c1=S,3.1%,5%,-2%,3%,-4%,5%,10%,11%
COCCn1c(C)cc(C(=O)COC(=O)c2ccc3c(c2)NC(=O)CS3)c1C,-13%,4%,?,29%,?,9%,24%,-1%
COC(=O)Cc1ccc2oc(-c3cccnc3)nc2c1,nt,-2%,50%[activator],6%,-13%[46.1 µM],nt,nt,-4%
Nc1cnn(C2CCCO2)c(=O)n1 (centres undefined),1.2%,15%,nt,-9%,0%,-2%,?,1%
CCOc1cc(NC(=S)NCCCN(C)C)c(OCC)cc1NC(=O)C1CC1,nt,7%,0%,20%[46.1 µM],?,nt,3%,1%
Cc1cccc(C(=O)OCC(=O)Nc2ccc(N3CCCCC3)cc2)c1O,-2.2%,-6%,9%,20%,-3%,?,0%,-5%
Cn1c(SCC(=O)N2CCN(c3ccccc3)CC2)nnc1-c1c[nH]c2ccccc12,-2.2%,3%,18µM*,nt,nt,-9%,13%,-3%
O=c1ccc(=O)n2n1CC(O)C2,1.7%,18%,-1%,-5%,-27%,1%,-4%,0%
Cn1c(SCc2ccccc2)nc2ccsc2c1=O,nt,1%,-30%,?,?,nt,-4%,-6%
COc1ccc(NC(=O)Nc2ccc3nonc3c2)cc1,nt,4%,7%,2%,?,nt,-2%,0%
Cc1ccc2c(C)c(C(=O)N(Cc3cccs3)C3CCS(=O)(=O)C3)oc2c1 (centres undefined),-2.5%,-8%,-27%,6%,?,13%,0%,-14%
CSc1nsc(SCc2cnc(C)nc2N)n1,4.0%,116%,-11%,0%,6%,-8%,6%,0%
CCOc1ccccc1-n1c(SCC(N)=O)nc2ccccc2c1=O,1.5%,-3%,9%,-10%,6%,-10%,-3%,7%
O=C(Nc1ccc(Cl)cc1)C1CCC(CNS(=O)(=O)c2ccc(Br)s2)CC1 (centres undefined),-2.0%,nt,-15%,1%[46.1 µM],1%[46.1 µM],25µM*,nt,nt
O=C(NCCCN1CCOCC1)c1cc(-c2ccc(Br)cc2)on1,1.5%,-6%,-26%,-3%,?,-6%,-5%,1%
CCC1=Nc2cc(C(=O)NCc3ccccc3Cl)ccc2Sc2ccc(C)cc21,-2.9%,nt,8%,-24%[46.1 µM],nt,?,nt,nt
CC(C)Cc1nnc(NC(=O)CCC(=O)N2CCC(C)CC2)s1,nt,11%,30%,3%[46.1 µM],12%[46.1 µM],nt,2%,3%
O=C(O)C1CCCCC1C(=O)Nc1nccs1 (centres undefined),5.3%,2%,nt,6%,21%,-1%,-7%,-2%
S=C(Nc1ccccc1)N(Cc1ccccc1)Cc1ccncc1,nt,-8%,-5%,nt,nt,nt,-4%,-2%
COCC(C)N=C1SCCN1Cc1ccccc1 (centres undefined),nt,-24%,7%,-1%[46.1 µM],-9%[46.1 µM],nt,-6%,2%
CNc1nc(N)c([N+](=O)[O-])c(NCc2ccccc2)n1,-9.8%,9%,0%,-2%,-2%,-10%,-4%,11%
CC(=O)c1cccc(NC(=O)Cn2cnc(S(=O)(=O)N3CCC(C)CC3)c2)c1,nt,-2%,-12%,nt,nt,nt,-6%,3%
CCN(CC)C(=O)C1=C(C)Nc2nc3ccccc3n2C1c1ccc(Cl)cc1 (centres undefined),-3.7%,nt,?,5%[46.1 µM],1%[46.1 µM],1%,nt,nt
CCOc1ccc(CCNC(=O)C(CC)n2nc(C)c3c(C)n(-c4ccccc4)nc3c2=O)cc1 (centres undefined),-3.6%,nt,-30%,-17%[46.1 µM],nt,-13%,nt,nt
CCCC(=O)C1=C(O)C(C(=O)OC)C(C)(C)CC1=NC (centres undefined),1.9%,5%,-13%,6%,-9%,1%,6%,17%
COc1ccc(/C=N/OCC(=O)NCc2cccs2)c(OC)c1,-1.0%,13%,0%,-11%,?,4%,3%,-1%
COc1ccccc1NC(=O)c1oc2ccccc2c1NC(=O)c1ccc(S(=O)(=O)N(C)C)cc1,-0.4%,nt,-8%,-7%[46.1 µM],7%[46.1 µM],-6%,nt,nt
CC(=O)c1cccc(NC(=O)c2cc(S(=O)(=O)N3CCOCC3)cs2)c1,nt,-1%,-29%,-2%,-2%,nt,2%,-5%
O=C1CCCC/C1=C\Nc1ccc(S(=O)(=O)Nc2cnc3ccccc3n2)cc1,nt,0%,27%,nt,nt,nt,1%,0%
O=C(NCc1cccnc1)c1ccc(NC(=O)c2ccco2)cc1,-0.9%,4%,40%[activator],2%,?,-3%,25%,-1%
# Next records.
SMILES,Cruzain inh Det,RE007 growth inh,2A StopGo,Lassa entry inh,MARV entry inh,Cruzain inh noDet,NS1 inh,SARS PLpro yeast
Cc1ccc(O)c(C(=O)c2cc(C#N)c3nc4ccccc4n3c2)c1,nt,-5%,?,3%,-1%[46.1 µM],nt,nt,-4%
O=C(Nc1ccc2oc(-c3ccccc3)nc2c1)c1cccnc1,-0.9%,-5%,-1%,-11%,-9%,-6%,-5%,-12%
Cc1cc(C)c(S(=O)(=O)Nc2ncccc2C)c(C)c1,nt,7%,64%[activator],nt,nt,nt,-21%,-6%
O=C(O)c1c(NC(=O)N2CCOCC2)sc2c1CCCC2,nt,18%,4%,13%[46.1 µM],?,nt,-1%,-8%
CN(C)C(=O)Oc1ccc2oc(=O)cc(-c3cc4ccccc4o3)c2c1,nt,-14%,0%,nt,nt,nt,?,-8%
CN(C)S(=O)(=O)c1ccc(C(=O)NCc2nnc(SCC(=O)N3CCCCCC3)o2)cc1,nt,2%,-15%,-12%[46.1 µM],1%[46.1 µM],nt,-5%,-1%

# Hits appear at their usual frequency. About 4.5% of those tested had a hit in this group.
